Anaer choline gr: growth inhibitors of anaerobic choline-fed gram-negatives, minimal medium, absorbance; Gram-negative bacterium anaerobic choline minimal medium; stronger effect = lower value; many inactives read as strong as hits in the columns shown; actives 0.2% (n = 55,000); calls only; AID 1963822, 2024;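 active means growth z-score on choline under -2 at 7 or 20 h with little or no fall on glycerol, limits in tiers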;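 further: stock transfer was 300 nL into about 50 µL; the organism is E. coli; final concentration not given here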
Anaer choline gr early: also measured in Anaer choline gr; calls as there; z-score; measured here: choline growth z-score, timepoint 1;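 score of optical density at 7 h as mean of two plates; lower means less growth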
Numbers without * were called inactive; i = inactive; + = active, no number; & = joins results of further samples. Not all compounds are listed; count on the stated rates, not on these rows.

SMILES	Anaer choline gr	Anaer choline gr early
O=C(Nc1ccc(Cl)cn1)c1c2c(nc3ccccc13)C(=O)N(C1CCCCC1)C2	i	0.68
O=C(C1CCN(S(=O)(=O)c2cccnc2)CC1)N1CCOc2ccc(Cl)cc21	i	-0.68
CC(COc1ccccc1)N(CCCl)Cc1ccccc1 (stereo unspecified)	i	0.96&0.24&-0.48
Cc1ccc(NC(=O)Cn2cnc3c(sc4ncccc43)c2=O)c(Cl)c1	i	-0.05
CC(C)OC(=O)c1cnn2c(C(F)(F)F)cc(-c3ccccc3)nc12	i	0.5
Cc1cc2n(n1)CC(C)(C(=O)NCc1ccc(F)cc1)N(c1ccc3c(c1)OCCO3)C2=O (stereo unspecified)	i	-3.1
CCCCC(=O)N1CCC2(C1)C(=O)N(C)c1ccccc12 (stereo unspecified)	i	-1.5
Cc1ccc(CNS(=O)(=O)c2ccc(-c3nnc(C4CCC4)o3)s2)o1	i	0.46
Cc1csc2ncc(C(=O)N3CCN(c4ccccc4F)CC3)c(=O)n12	i	-0.19
O=C(NC1CCN(Cc2ccccc2)CC1)c1ccc2c(c1)nc1n2CCCC1	i	-2
CC(C)Cn1c(=O)c(-c2ccc(C(=O)N3CCN(c4ccccc4)CC3)cc2)nc2ccccc21	i	1
Cc1cccc(CNC(=O)C2CCCN(S(=O)(=O)Cc3ccc(F)cc3)C2)c1 (stereo unspecified)	i	0.72
O=S(=O)(c1cc(F)ccc1F)N1CCN(c2nc3cccnc3s2)CC1	i	1
CCN(CC)CCOc1ccc(/C(=C(/Cl)c2ccccc2)c2ccccc2)cc1	i	-2.6&-1.2
CCOC(=O)c1ccc(NC(c2cccnc2)c2ccc3cccnc3c2O)cc1 (stereo unspecified)	i	1.3
CC(C)n1cnc2nc(CSc3ccc(NC(=O)Nc4ccc(F)c(Cl)c4)cc3)cc(=O)n21	i	0.39
O=C(Nc1ccccc1)n1ncc2ccccc21	i	-2.3
Cc1nn(-c2ccc(-c3noc(C4CC4)n3)cc2)cc1C(=O)N1CCn2c1nc1ccccc12	i	0.39
CC(=O)Nc1ncc2c(n1)CC(c1ccc(C)cc1)CC2=O (stereo unspecified)	i	0.59
COc1ccc(NC(=O)Cc2csc(NC(=O)c3cc(OC)cc(OC)c3)n2)cc1	i	1.8
COc1ccc(Nc2nc(N)c3ccccc3n2)cc1	i	-5.1
c1ccc(Cc2nnc3sc(-c4ccc5ccccc5n4)nn23)cc1	i	-1.1
Cc1ccc(-n2c(N)cc(=O)[nH]c2=O)cc1	i	-0.49
Cn1c(C(=O)NCc2ccccn2)cc2c(=O)oc3ccccc3c21	i	0.77
Cc1ccsc1CCNS(=O)(=O)c1ccc(-c2ccno2)s1	i	-1.5
CC(CNC1CCCCC1)OC(=O)c1ccccc1 (stereo unspecified)	i	0.45
O=C(O)c1ccc(Nc2cnc3ccccc3n2)cc1	i	-0.21
Cc1cc(N2CCN(C)CC2)n2nc(CN3CCN(CC(C)C)CC3)nc2n1	i	0.52
CCOc1ccc(OCC)c(NS(=O)(=O)c2cc(-c3nc(C)cs3)sc2C)c1	i	0.37
CCC(=O)Nc1nc2ccccc2n1CCCN(C)C	i	-0.56
CCn1c(CCc2ccccc2NS(=O)(=O)c2ccc(F)cc2F)nc2ccccc21	i	1
C=CCn1c(SCc2ccc(C(=O)OC)cc2)nc2sc(C)c(C)c2c1=O	i	0.57
C#CCOc1ccc(C2CC(=O)Nc3c2c(C)nn3-c2ccc3nnc(C)n3n2)cc1OC (stereo unspecified)	i	-0.84
N#CCSc1n[nH]c2nc3ccccc3n12	i	-0.93
CN(Cc1ccccc1)C(=O)CSc1nc(NCc2ccccc2)c2ccccc2n1	i	-1.4
CC(C)OCCCNC(=O)c1ccc2c(c1)N(Cc1ccc(F)cc1)C(=O)c1ccccc1S2	i	1.9
Cc1ccc(COCc2nn(C)c3c2CN(S(=O)(=O)c2ccc(Br)cc2)CC3)cc1	i	0.53
O=C(Nc1nnc(SCC(=O)N2CCCCC2)s1)NC1CCCCC1	i	-1.6
CCCn1cnc2nc(CSc3ccccc3NC(=O)Nc3ccccc3Cl)cc(=O)n21	i	-1.2
Cn1c(=O)n(Cc2ccc(Cl)cc2)c(=O)c2cnc(-c3ccncc3)nc21	i	0.55
Cn1c(=O)c(C(=O)Nc2ccccc2)nc2ccccc21	i	0.53
CCS(=O)(=O)N1CCC[C@@H]2CN3CCc4cc(OC)ccc4[C@@H]3C[C@@H]21	i	0.09
Cc1nc2nc(CN3CCc4ccccc4C3)[nH]n2c(=O)c1C	i	0.64
COc1ccc(C2C3=C(CC(C)(C)CC3=O)Nc3onc(C)c32)cc1O (stereo unspecified)	i	0.05
CN(C)C(=O)c1ccc2c(c1)N(CC(=O)Nc1ccc3c(c1)OCO3)C(=O)CS2	i	-0.75
O=C(Cn1nc2n(CCc3ccccc3)c(=O)c3ccccc3n2c1=O)c1cccc(Cl)c1	i	-0.5
CCc1ccccc1N1C(=O)c2cc3ccsc3n2CC1(C)C(=O)NCc1ccccc1OC (stereo unspecified)	i	0.32
CCOc1ccc(NC(=O)N2CC(=O)N(CC(=O)NCc3ccccc3Cl)c3ccccc32)cc1	i	1.6
Cc1nc(-c2ccc(C(=O)N3CCC(C(=O)N4CCCCC4)CC3)cc2)no1	i	0.36
CCOc1ccc(-c2noc(CCCn3c(=O)[nH]c4cc5c(cc4c3=O)OCO5)n2)cc1OC	i	-1.1
CC(=O)N1CCCSc2ccc(S(=O)(=O)NCCC(C)C)cc21	i	-1.2
Cc1cc(C)n(CC(=O)NC2CCCC2)c(=O)c1S(=O)(=O)c1ccc(Br)cc1	i	0.24
Cc1noc(C)c1C1CCCN1C(=O)c1ccccc1F (stereo unspecified)	i	0.57
CCCCNC(=O)CSc1nc(-c2ccc(C(C)C)cc2)no1	+	-0.77*
O=C(Cn1ccn2nc(-c3ccccc3)cc2c1=O)N1CCC(Cc2ccccc2)CC1	i	2
CCC1=NS(=O)(=O)c2cccnc2N1c1ccc(Br)cc1	i	3.1
O=C(COc1ccc(Cl)cc1-n1cnnc1)NCc1ccccc1	i	-0.85
O=C(OCC1CCCO1)c1ccc2c(c1)N(Cc1ccccc1Cl)C(=O)c1ccccc1S2(=O)=O (stereo unspecified)	i	1.4
CCC1Oc2ccccc2C(=O)N(CC(=O)c2ccc(S(=O)(=O)N3CCOCC3)cc2)C1=O (stereo unspecified)	i	-0.98
Cc1nn(CC(=O)NC(C)(C)C)c(C)c1S(=O)(=O)N1CCCC(C(=O)N2CCOCC2)C1 (stereo unspecified)	i	-0.97

15 neighbouring compounds out of the list so far:
SMILES	Anaer choline gr	Anaer choline gr early
CN(C)C(=O)c1ccc2c(c1)N(CC(=O)Nc1ccc3c(c1)OCO3)C(=O)CS2	i	-0.75
O=C(Cn1nc2n(CCc3ccccc3)c(=O)c3ccccc3n2c1=O)c1cccc(Cl)c1	i	-0.5
CCc1ccccc1N1C(=O)c2cc3ccsc3n2CC1(C)C(=O)NCc1ccccc1OC (stereo unspecified)	i	0.32
CCOc1ccc(NC(=O)N2CC(=O)N(CC(=O)NCc3ccccc3Cl)c3ccccc32)cc1	i	1.6
Cc1nc(-c2ccc(C(=O)N3CCC(C(=O)N4CCCCC4)CC3)cc2)no1	i	0.36
CCOc1ccc(-c2noc(CCCn3c(=O)[nH]c4cc5c(cc4c3=O)OCO5)n2)cc1OC	i	-1.1
CC(=O)N1CCCSc2ccc(S(=O)(=O)NCCC(C)C)cc21	i	-1.2
Cc1cc(C)n(CC(=O)NC2CCCC2)c(=O)c1S(=O)(=O)c1ccc(Br)cc1	i	0.24
Cc1noc(C)c1C1CCCN1C(=O)c1ccccc1F (stereo unspecified)	i	0.57
CCCCNC(=O)CSc1nc(-c2ccc(C(C)C)cc2)no1	+	-0.77*
O=C(Cn1ccn2nc(-c3ccccc3)cc2c1=O)N1CCC(Cc2ccccc2)CC1	i	2
CCC1=NS(=O)(=O)c2cccnc2N1c1ccc(Br)cc1	i	3.1
O=C(COc1ccc(Cl)cc1-n1cnnc1)NCc1ccccc1	i	-0.85
O=C(OCC1CCCO1)c1ccc2c(c1)N(Cc1ccccc1Cl)C(=O)c1ccccc1S2(=O)=O (stereo unspecified)	i	1.4
CCC1Oc2ccccc2C(=O)N(CC(=O)c2ccc(S(=O)(=O)N3CCOCC3)cc2)C1=O (stereo unspecified)	i	-0.98

(list continues)
SMILES	Anaer choline gr	Anaer choline gr early
Clc1ccc(-c2cc3c(N4CCN(c5ccccn5)CC4)nccn3n2)cc1	i	-0.06
Cc1ccc2c(c1)C=C(C(=O)Nc1cccc(F)c1)C=CO2	i	0.24
Cc1cc2c(cc1S(=O)(=O)N1CCCC(C(=O)N3CCc4ccccc4C3)C1)OC(C)C(=O)N2 (stereo unspecified)	i	-0.55
CC(C)(C)c1ccc(-c2nc3nc(CN4CCCCC4)cc(=O)n3[nH]2)cc1	i	-0.5
CCn1c(C)c(/C=C/c2nc3ccccc3c(=O)n2C)c2ccccc21	i	0.59
CC1=C(c2ccc(C)c(C)c2)S(=O)(=O)N(CC(=O)NCc2cccc(Br)c2)C1=O	i	0.73
Cc1cc(C)c(S(=O)(=O)N2CCN=C2N2CCN(c3ccccc3Cl)CC2)cc1C	i	0.31
COc1cc(C2CC(=O)Nc3c2c(C)nn3-c2ccc3nnc(C)n3n2)ccc1OC(C)C (stereo unspecified)	i	0.01
O=C(Cc1ccccc1Br)N1CCC(c2nc(-c3ccccc3)no2)CC1	i	-0.22
Cc1cc(C)n2c(Nc3ccc(Cl)cc3)c(-c3ccsc3)nc2n1	i	-0.3
COc1ccc2nc(Nc3nc4c(c(=O)[nH]3)CCCC4)nc(C)c2c1	i	0.26
COCCn1c(SC(C)C(=O)c2ccc(C)c(C)c2)nc2cc(C(=O)NC(C)C)ccc2c1=O (stereo unspecified)	i	0.41
COc1ccc(NC(=O)C2CCN(c3nc(-c4ccc(C)cc4)no3)CC2)cc1Cl	i	-0.44
Cc1ccc(-c2ccc(-n3nc(C)c(S(=O)(=O)NCc4ccccc4)c3C)nn2)cc1	i	1.3
Cc1nc(N2CCOCC2)cc(N2CCN(C(=O)Nc3ccc(Cl)cc3)CC2)n1	i	1.1
COc1ccc(NC(=O)CN2N=NC3C(=O)N(c4ccc(C)cc4)C(=O)C32)c(OC)c1 (stereo unspecified)	i	-0.49
Cc1cc(C)cc(-c2cc3nc(C)cc(N4CCC(C(=O)NC5CC5)CC4)n3n2)c1	i	-0.06
CCn1cnc2c(=O)oc3ccccc3c21	i	-0.16
CCOC(=O)c1cnc(SCC(=O)Nc2ccccc2C)nc1N	i	-0.68
Cc1ccc(-c2csc(SCc3noc(CCC(=O)Nc4cc(C)on4)n3)n2)cc1	i	0.77
O=C(CSc1ncnc2c1sc1cccc(F)c12)NC1CCN(Cc2ccccc2)CC1	i	-0.29
O=C1Nc2ccccc2C12CCN(S(=O)(=O)c1cccc(F)c1)C2 (stereo unspecified)	i	-0.18
Cc1c(C(=O)NC2CCN(Cc3ccccc3)CC2)sc2nc[nH]c(=O)c12	i	0.15
Cc1cc(C(C)(C)C)cc(C)c1CC1=NCCN1	i	0.99&0.6
Cc1nc(N=Nc2cc(S(=O)(=O)O)c3cc([N+](=O)[O-])cc(S(=O)(=O)O)c3c2)c(COP(=O)(O)O)c(C=O)c1O	i	0.61
Cc1nn(-c2ccccc2)cc1-c1noc(C(=O)NCc2ccc(Cl)cc2)n1	i	1.5
O=S(=O)(NCc1ccc(Br)cc1)c1cc(-c2noc(C3CC3)n2)cs1	i	1.8
COc1ccc(OCc2ncc(C(=O)O)c(-c3ccncc3)n2)cc1	i	1.2
COc1ccc(C(=O)N2CCC(c3nc(-c4ccc(S(=O)(=O)N5CCCC5)cc4)no3)CC2)cc1	i	0.05
COc1cc(CNC(C)c2ccccc2)ccc1OCc1ccc2c(c1)n(C)c(=O)n2C (stereo unspecified)	i	0.02
CCOCCCNC(=O)C(c1ccc(C)cc1)N(Cc1ccc2c(c1)OCO2)C(=O)c1cnccn1 (stereo unspecified)	i	-0.85
COc1cccc(NC(=O)Nc2ccc(Nc3nc(C)cc(N4CCCCC4)n3)cc2)c1	i	-0.56
CC(C)NC(=O)C1CCCN(c2cc(=O)n(C)c(=O)n2C)C1 (stereo unspecified)	i	0.63
O=C1COc2ccc(S(=O)(=O)NC3CC3)cc2N1Cc1noc(C2CCC2)n1	i	0.82
COCCNC(=O)CN1CCN(c2ccc(C(=O)O)cc2NC(=O)c2ccccc2Cl)CC1	i	0.23
O=C(CSc1nc2ccccc2nc1N1CCCC1)N1CCN(c2ccc(F)cc2)CC1	i	0.25
CCCCCNC(=O)CCc1nnc2c(N3CCCCC3)nc3ccccc3n12	i	-0.97
Cc1nc2cc(-c3noc(-c4ccc5c(c4)OCO5)n3)ccc2n(C2CCCC2)c1=O	i	-0.59
CC(=O)Nc1ccc(NC(=O)C2CC(=O)N(CCc3c[nH]c4ccc(Cl)cc34)C2)cc1 (stereo unspecified)	i	0.35
Cc1ccc2nc(NC(=O)CSc3cc(C)[nH]c(=O)n3)sc2c1	i	0.93
Cc1ccc(-c2nc3sc(CCNS(=O)(=O)c4ccccc4)c(C)n3n2)cc1	i	0.14
O=C(NCCn1c(-c2ccc(F)cc2)nc2cccnc21)Nc1cccc(Cl)c1	i	-0.18
Cc1cc(C)n2nc(CN(C(=O)C(C)C)c3ccc(Cl)cc3)nc2n1	i	-1.3
O=C(CCN(CCc1ccccc1)C(=O)c1cccc(F)c1)N1CCNCC1	i	-2.1
CC1=C(c2ccc(C)c(C)c2)S(=O)(=O)NC1=NCCCN1CCC(Cc2ccccc2)CC1	i	-0.29
CCc1cccc(-n2nnnc2N2CCN(C(=O)Nc3ccc(C)c(C)c3)CC2)c1	i	-0.08
COc1ccc2[nH]cc(CCNC(=O)C3CCN(S(=O)(=O)c4ccc5c(ccn5C)c4)CC3)c2c1	i	-0.14
Cc1cc(=O)n2c(n1)NC(Nc1ccc(C)c(C)c1)=NC2c1ccc(Cl)cc1 (stereo unspecified)	i	0.56
Cc1ccc(NC(=O)CN2C(=O)CSc3ccc(C(=O)N4CCCC4)cc32)nc1	i	0.33

Assay outcomes as filed in PubChem BioAssay.
